HNF4A DNA FP: change in binding of human HNF4 alpha to DNA; P41235; HNF4a-FITC DNA binding, fluorescence polarization, 1 h; activity change, % at 10 µM; 360,000 tested, 0.3% active; in the data active = activity change above about 30%, passing the limit was not always enough;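 note: controls were the assay level and a saturating level of protein; the project sought stronger binding though the title names inhibitors; some compounds called inactive have numbers as strong as hits; positive values seem to mean higher polarization but the record does not say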
Ecoli growth: E. coli growth inhibition. Escherichia coli growth, OD600, 23 h; stronger effect = lower value. AID 1053175. OD600 absorbance (no concentration beside the values). 330,000 tested, 0.21% active;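 active = OD600 absorbance below the run mean of sample wells minus 3.6 SD, in any replicate, cut at about 0.56 in these data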;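 note: stock transfer was 300 nL into about 60 µL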
Vif A3G: HIV-1 Vif–A3G interaction blockers – biochemical, TR-FRET, GST-Vif 1-94, biotin-A3G peptide, dose response retest, primary screen (AID 1117319) | TR-FRET GST-Vif / biotin-A3G peptide binding; higher % means a stronger effect; test concentration not given here; strong numbers were not always called active | one-dose inhibition, %; IC50 in µM for titrated hits | 260,000 tested, 0.57% active;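 active = above the screen mean plus three standard deviations and confirmed in dose response; inconclusive = results disagree or hit not tested in dose response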;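 note: Vif residues 1-94 fused to GST binding biotinylated APOBEC3G peptide 110-148; 0% = full assay without inhibitor and 100% = GST in place of GST-Vif; retest series ran down from 100 µM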
LANA-H2A inh: blocks KSHV LANA binding to histone H2A/H2B. cell-free LANA-H2A/H2B peptide, fluorescence polarization. inhibition, % (test concentration not listed). 320,000 tested, 0.6% active. AID 2629; in the data active = inhibition mostly above about 10%, no sharp cut-off; inactive = mostly below about 6.7%;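 note: stock transfer was 7.5 nL into about 10 µL; 0% = median of vehicle wells and 100% = median of positive control wells; one replicate is shown; the record names a cut of 25% in any replicate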
Target sequence (Q9QR71 whole entry, looked up): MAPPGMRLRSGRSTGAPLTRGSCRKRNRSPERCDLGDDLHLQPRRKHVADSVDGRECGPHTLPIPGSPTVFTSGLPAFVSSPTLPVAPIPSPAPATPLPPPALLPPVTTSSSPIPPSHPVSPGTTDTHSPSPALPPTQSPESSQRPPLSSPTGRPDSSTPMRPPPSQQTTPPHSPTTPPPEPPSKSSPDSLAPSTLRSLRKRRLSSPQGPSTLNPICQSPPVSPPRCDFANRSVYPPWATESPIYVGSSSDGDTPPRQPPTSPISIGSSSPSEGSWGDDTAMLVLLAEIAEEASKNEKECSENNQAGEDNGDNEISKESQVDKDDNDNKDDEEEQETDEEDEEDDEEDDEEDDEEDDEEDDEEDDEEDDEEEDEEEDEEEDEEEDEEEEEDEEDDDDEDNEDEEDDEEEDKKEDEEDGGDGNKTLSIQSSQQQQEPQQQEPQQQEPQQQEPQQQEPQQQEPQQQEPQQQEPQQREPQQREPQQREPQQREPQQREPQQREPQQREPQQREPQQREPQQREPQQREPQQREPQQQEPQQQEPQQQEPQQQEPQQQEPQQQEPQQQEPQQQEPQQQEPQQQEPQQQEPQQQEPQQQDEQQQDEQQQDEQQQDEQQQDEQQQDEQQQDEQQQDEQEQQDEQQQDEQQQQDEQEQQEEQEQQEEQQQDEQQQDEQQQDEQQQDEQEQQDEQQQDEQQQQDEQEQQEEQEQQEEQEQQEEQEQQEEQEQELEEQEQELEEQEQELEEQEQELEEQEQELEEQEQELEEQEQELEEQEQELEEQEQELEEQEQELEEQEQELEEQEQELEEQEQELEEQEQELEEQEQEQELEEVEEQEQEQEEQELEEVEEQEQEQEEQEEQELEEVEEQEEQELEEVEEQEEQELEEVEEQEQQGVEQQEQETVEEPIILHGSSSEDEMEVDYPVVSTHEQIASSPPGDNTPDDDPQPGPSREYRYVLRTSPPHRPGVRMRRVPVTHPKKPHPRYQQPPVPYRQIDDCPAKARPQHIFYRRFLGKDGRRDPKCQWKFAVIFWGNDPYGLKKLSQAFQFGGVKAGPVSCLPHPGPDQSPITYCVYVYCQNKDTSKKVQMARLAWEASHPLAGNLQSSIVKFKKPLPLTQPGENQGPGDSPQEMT
A1 inh: inhibitors of the anti-apoptotic protein A1, read as caspase activation | 330,000 tested, 0.066% active | MEF A1-2A-BIM cells, Caspase-Glo 3/7 luminescence, 3 h; percent of clofoctol response, vehicle zero | caspase activation, % (concentration not given with the values);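 active = over half of replicate activation scores above 10%, or exactly half above 10 with the replicate mean above 10; inconclusive = replicate mean below 10 yet half the replicates above 10; inactive = over half of replicates below 10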;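 note: wells of about 30 µL received 50 nL stock; many hits fall short of the cut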
Beta2AR agonist: human beta-2 adrenergic receptor agonism by FAP; P07550; Am2.2-beta2AR cells, FAP receptor internalization, flow cytometry; reference of the scale not given here; response, % (no concentration beside the values); 340,000 tested, 0.43% active; AID 504454;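 active = response above a set limit, near 3 SD of response in nonfluorescent compounds, cut at about 42% in these data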;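 note: stock transfer was 100 nL into about 11 µL; a reference agonist was the positive control; negative values mostly stem from fluorescent compounds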
UCH37 DUB inh: inhibitors of human deubiquitinating enzyme UCH37; Q9Y5K5; purified proteasome/UCH37, Ub-AMC cleavage fluorescence; inhibition, % (test concentration not listed); 330,000 tested, 0.33% active; AID 588478;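 active = mean of two replicates above 20%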;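 note: 0% = compound-free wells with enzyme and 100% = wells lacking proteasome; stock transfer was 100 nL into about 20 µL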
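Reagent: Ub-AMC substrate; assay system: Proteasome-associated human UCH37 deubiquitinase; controls: no-proteasome and no-compound wells; read-out: % inhibition of Ub-AMC cleavage fluorescence; timing: 30 min preincubation with enzyme, 25 min cleavage at room temperature; signal: AMC fluorescence from Ub-AMC cleavage, excitation 355 nm, emission 460 nm; buffer or medium: Tris-HCl pH 7.4 plus ovalbumin, ATP-MgCl2, DTT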
Starred values were filed as active, the others as inactive; i = inactive; ? = inconclusive; · = no result given; & = joins results of further samples.

no.	molecule	HNF4A DNA FP	Ecoli growth	Vif A3G	LANA-H2A inh	A1 inh	Beta2AR agonist	UCH37 DUB inh
1	Cc1ccc(CS(=O)Cc2ccc(C(=O)NC3CCCC(C)C3C)o2)cc1 (stereo unspecified)	0.1	0.68	3%	-5.5	0.3	-6	5.7
2	CCOc1ccc(C(=O)N[C@H](C(=O)Nc2cccc(S(=O)(=O)N3CCCCC3)c2)C(C)C)cc1	2.4	0.68	·	1.2	0.1	15	3.0
3	Cc1ccc(S(=O)(=O)N(C)C)cc1NC(=O)COC(=O)c1n[nH]c(=O)c2ccccc12	-1.1	0.68	-12%	-3.1	0.4	4	1.4
4	N#C/C(Cn1c[n+](NC(=O)Nc2ccccc2)cn1)=N/O	1.1	·	9%	-3.1	1.1	2	·
5	COc1cccc(NC(=O)CCNC(=O)C2CCN(S(=O)(=O)c3ccc(F)cc3)CC2)c1	1.4	0.69	-1%	2.6	1.5	3	2.2
6	CCCc1cc(=O)[nH]c(SCC(=O)N2CCc3cc(OC)c(OC)cc3C2)n1	-3.1	0.67	·	0.2	-0.3	6	-0.6
7	N#CCCn1cc(/C=N/O)c(-c2ccc(F)cc2)n1	0.3	·	0%	2.7	-1.7	1	·
8	O=C(Cc1ccccc1)Nc1cccc(-c2nc3ncccc3o2)c1	-1.8	0.76	-7%	-2.2	0.7	-3	-3.4
9	C1=C(c2ccccc2)Nc2ccccc2N=C1c1ccccc1	-1.6	0.75	·	-3.3	0.3	-16	5.0
10	CCOc1cc(N2CCOCC2)c(OCC)cc1NC(=O)C(C)Oc1ccccc1 (stereo unspecified)	7.4	0.69	7%	1.4	-1.7	6	1.2
11	N#C/C(=C\c1cc([N+](=O)[O-])c(N2CCOCC2)cc1N1CCOCC1)c1nc2ccccc2[nH]1	-4.9	0.76	-3%	-0.9	-0.3	13	11
12	Cc1ccc(OCC(=O)N(c2ccccn2)C2CCCCC2)c(C)c1	1.8	0.68	23%	-0.1	0.2	10	5.8
13	CC(=O)c1ccc(S(=O)(=O)NC2CC(=O)N(c3ccc4c(c3)OCCO4)C2)cc1 (stereo unspecified)	-0.9	0.61	5%	-5.0	2.0	-5	4.1
14	Nc1ccc(Cl)c[n+]1Cc1cccc2cccnc12	1.1	0.69	1%	-6.3	0.0	3	7.5
15	NC(=O)c1nn(-c2ccccc2)nc1NC(=O)CN1CCCCC1	-2.8	0.6	20%	-1.3	0.1	-8	-6.9
16	Cc1cccc(C(=O)Oc2ccccc2-c2nnco2)c1	-0.8	0.71	12%	0.5	0.7	2	3.2
17	CCOc1cc(/C=C2/SC(=S)N(CC3CCCO3)C2=O)ccc1O (stereo unspecified)	42*	0.67	7%	1.5	-0.4	-76	2.4
18	Cc1ccc(S(=O)(=O)CCC(=O)OCC(=O)c2c(N)n(CC(C)C)c(=O)n(C)c2=O)cc1	-1.5	0.71	-6%	-4.0	0.7	-1	5.2
19	CCn1c(COc2ccc3c(c2)CCCC3)nnc1SCC(=O)Nc1ccc(C(=O)OC)cc1	-1.2	0.71	11%	-1.7	-0.1	0	2.4
20	CCn1c(=O)n(CC(=O)NCc2ccco2)c(=O)c2ccccc21	0.6	0.81	8%	0.7	0.1	2	-1.2
21	Cc1ccc(Nc2nc(N)c3ccccc3n2)cc1Cl	1.0	0.44*	·	0.2	-8.4	-3	-23
22	COc1ncc(-c2ccc3c(c2)S(=O)(=O)c2cccc(C(=O)NCc4ccco4)c2C3=O)cn1	-0.4	0.63	·	0.8	-0.1	-17	2.3
23	CCOC(=O)C(=CNc1ccc(Oc2cncc(Cl)c2)nc1)C(=O)OCC	-2.9	0.7	-1%	-4.5	-0.8	6	5.6
24	COc1ccccc1C(=O)NCc1ccco1	0.1	0.67	·	-0.6	0.1	-1	0.9
25	CCOc1ccc(S(=O)(=O)N2CCCC(C(=O)Nc3cccc(C)c3)C2)cc1 (stereo unspecified)	4.6	0.67	-8%	3.6	1.2	-3	0.6

The results go on.
no.	molecule	HNF4A DNA FP	Ecoli growth	Vif A3G	LANA-H2A inh	A1 inh	Beta2AR agonist	UCH37 DUB inh
26	O=C1/C(=C\c2cccnc2)Sc2ccccc21	-0.2	0.63	·	-1.1	0.0	14	3.0
27	COc1ccccc1NC(=O)NCCc1ccccc1	-0.4	0.74	-8%	-5.7	1.1	11	3.0
28	CCOC(=O)N1CCC(NC(=O)c2ccc(N3CCC4(CC3)OCCO4)c([N+](=O)[O-])c2)CC1	-3.6	0.7	4%	·	-0.6	0	5.4
29	O=C(NC1CCCCC1)N1CCCC1	-1.4	0.67	-3%	2.7	1.2	0	0.9
30	O=C1CC(C(=O)O)S/C(=N\NC(=O)c2ccc(F)cc2)N1 (stereo unspecified)	1.6	0.69	?	0.9	0.7	-8	6.5
31	O=C(Cn1c2ccccc2c(=O)c2ccccc21)Nc1cccc(F)c1	3.6	0.71	·	-1.6	0.0	2	-91
32	CNc1nc(N)c(C(=O)C23CC4CC(CC(C4)C2)C3)s1	3.0	0.69	-4%	-6.0	0.4	1	2.1
33	CCOC(=O)N1CCN(C(=O)c2ccc(Cl)c(S(=O)(=O)N3CCOCC3)c2)CC1	2.4	0.72	-3%	6.7	0.3	-5	-0.4
34	O=C(COc1cccc(NC(=O)c2cccc([N+](=O)[O-])c2)c1)c1ccc(F)cc1	1.5	0.69	5%	-2.4	-1.1	8	-0.6
35	CCC(C)c1ccc(O)c(NC(=O)c2ncn[nH]2)c1 (stereo unspecified)	-1.6	0.69	18%	4.8	0.4	-2	3.3
36	O=C(CSc1nc2nn(-c3ccccc3)c(=O)c-2c2n1CCCCC2)c1ccc(O)c(O)c1	-27	0.72	?	1.8	-0.1	14	5.3
37	c1cncc(-c2nc(-c3ccc4c(c3)OCO4)cs2)c1	-1.1	0.76	-19%	7.2	-10.0	-9	0.1
38	O=C(CSc1nc2[nH]ncc2c(=O)n1-c1ccccc1)NCc1cccs1	-1.1	0.67	-8%	-2.3	-0.3	-4	4.1
39	COCc1cc(C)n(CC(=O)Nc2ccc(N3CCOCC3)c(Cl)c2)c(=O)c1C#N	0.9	0.65	·	1.9	-0.5	2	1.0
40	COc1ccc(NC(=O)COc2ccc(N(C)S(=O)(=O)c3ccc(Cl)cc3)cc2)cc1OC	-0.6	·	·	-5.8	-0.3	-3	·
41	COC(=O)c1ccc(NC(=O)C2CC(=O)N(c3cc(C)ccc3C)C2)cc1 (stereo unspecified)	-4.4	0.7	-3%	4.2	0.9	-2	0.8
42	CC(CNC(=O)C(=O)NC(C)CCc1ccccc1)Cc1ccccc1 (stereo unspecified)	0.3	0.67	-2%	-2.5	-0.4	-6	2.1
43	COc1ccc(CN(C)C(=O)c2cccc(NS(=O)(=O)c3ccccc3)c2)c(OC)c1	1.0	0.7	·	-1.7	0.9	10	-0.1
44	Cc1oc2cc(OC(C)C(=O)O)ccc2c(=O)c1Oc1ccccc1 (stereo unspecified)	1.9	0.7	-7%	3.9	-1.0	10	0.1
45	Cc1cc(OCC(=O)N(C)c2ccccc2)cc2c1C(=O)CC(C)(C)O2	5.4	0.65	-1%	-1.3	2.1	-11	0.4
46	NC(=O)CSc1cn(Cc2cccc(F)c2)c2ccccc12	0.4	0.69	·	-1.3	0.3	3	1.8
47	Cn1c(SCc2ccccc2)nnc1-c1cccs1	-1.2	0.75	0%	0.6	0.3	-9	-0.8
48	CC(=O)Nc1ccc(SCC(=O)c2cc(C)ccc2C)cc1	-3.1	0.7	·	3.0	0.8	0	1.1
49	COc1ccc(C)cc1N(CC(=O)NC1CCCC1)C(=O)Cn1nnc(-c2ccc(C)o2)n1	-3.7	0.63	·	·	·	-10	2.0
50	COc1ccccc1/C=C/C(=O)NC(=S)Nc1ccc(S(=O)(=O)N(C)c2ccccc2)cc1	2.9	0.77	4%	1.6	0.9	3	10

Next section
no.	molecule	HNF4A DNA FP	Ecoli growth	Vif A3G	LANA-H2A inh	A1 inh	Beta2AR agonist	UCH37 DUB inh
51	CCOc1ccccc1C(=O)NC(C(=O)OCC(=O)Nc1nnc(-c2ccccc2)o1)C(C)C (stereo unspecified)	-1.2	0.67	11%	-0.2	-0.5	-12	0.8
52	O=C(Nc1cnn(Cc2ccc(F)cc2)c1)c1cnn2c(C(F)F)cc(-c3ccccc3)nc12	-1.8	0.69	5%	0.1	-0.3	-5	5.3
53	CCN(CC)c1ccc(/C=C(\C#N)C(=O)NCc2ccco2)cc1	·	0.71	·	0.4	1.4	·	1.0
54	COCCNC(=O)CSc1nc2cc(OC)c(OC)cc2c(=O)n1CCc1ccc(S(N)(=O)=O)cc1	6.2	0.68	·	-1.3	0.4	0	5.8
55	Cc1cc(Cl)ccc1NC(=S)NCC(O)c1ccccc1 (stereo unspecified)	-3.4	0.63	·	9.0	-0.8	14	2.0
56	Cc1ccc(C)c(OCc2cc(C(=O)N3CC[C@@H]4CCCC[C@H]4C3)no2)c1	-5.0	0.71	·	-1.3	-0.3	5	1.2
57	C=CC[C@@H](CC(=O)N[C@H](CO)Cc1ccccc1)C(=O)N[C@H](COC(=O)[C@H](CC=C)CC(=O)OC(C)(C)C)Cc1c[nH]c2ccccc12	-3.6	·	·	·	·	4	1.3
58	COc1ccccc1CNC(=O)Cn1cc2c(n1)CCCC2	3.3	0.75	0%	-2.6	-0.1	3	3.1
59	Oc1ccc(Nc2nc3ccccc3nc2Nc2ccc(O)cc2)cc1	44*	0.67	?	-2.0	2.3	1	-4.9
60	Cc1occc1C(=O)N/N=C/C=C/c1ccccc1[N+](=O)[O-]	-1.0	·	-8%	-9.8	-2.7	11	·
61	COc1ccc(CC(=O)N/N=C/c2ccc(-c3cccc(C(=O)O)c3)o2)cc1OC	-11	·	6%	8.8*	-0.6	1	·
62	COc1ccc(COc2ccsc2C(=O)Nc2ccc(Cl)c(Cl)c2)cc1	0.8	0.71	-5%	4.9	0.2	2	-0.2
63	COc1ccc(C2CC(c3cccs3)=NN2C(=O)c2ccccc2)cc1OC (stereo unspecified)	-3.4	0.65	·	-0.6	0.0	2	0.7
64	O=c1c2ccccc2oc2cc(NCCCn3ccnc3)ccc12	-3.8	·	·	-0.4	-3.6	-12	i
65	CC(=O)c1cccc(NC(=O)Cn2cnc(S(=O)(=O)N3CCOCC3)c2)c1	0.5	0.65	12%	-0.3	-0.3	-6	2.3
66	Cc1ccc(NC(=O)c2ccc(-n3cncn3)c([N+](=O)[O-])c2)cc1	-0.9	0.69	1%	-2.9	-0.6	4	6.0
67	O=C(NCc1ccncc1)c1cccc(Cn2cc(Br)cn2)c1	-0.6	0.78	8%	1.4	-0.5	-5	6.1
68	CCOC(=O)C1CCCN(S(=O)(=O)c2ccc3c(c2)CC(C)N3C(=O)C2CC2)C1 (stereo unspecified)	0.5	0.66	0%	-2.6	0.9	5	1.4
69	CCC(c1nnnn1CCc1ccccc1)N(Cc1ccco1)Cc1cc2cccc(C)c2[nH]c1=O (stereo unspecified)	3.7	0.78	2%&-3%	-0.3	-1.4	2	2.8
70	CCOC(=O)[C@@H]1[C@H]2COc3ccccc3[C@H]2N2C(=O)N(c3cccc(Cl)c3)C(=O)[C@]12C	5.1	0.81	·	4.9	-0.6	2	-6.0
71	O=C(Nc1nnc(C2CC2)o1)c1ccc(S(=O)(=O)N2CCCc3ccccc32)cc1	5.5	0.71	69%	4.1	0.9	13	0.8
72	COc1ccc(-n2cc(CNC3CCN(C)CC3)c(-c3cccc(F)c3)n2)cc1	4.2	0.67	26%	-0.7	0.2	34	-0.5
73	COC(=O)c1cc(Br)ccc1NC(=O)Nc1ccccc1	0.1	0.69	28%	-3.5	0.6	-5	-1.1

Screens: PubChem, several laboratories

Rows were taken by chance. Share with any hit: about 2.1%.
